Screens from PubChem.
Ecoli growth: E. coli growth inhibition. Escherichia coli growth, OD600, 23 h; stronger effect = lower value. OD600 absorbance (no concentration beside the values). actives 0.21% (n = 330,000);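 active means OD600 absorbance below the run mean of sample wells minus 3.6 SD, in any replicate, cut at about 0.56 in these data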;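 further: stock transfer was 300 nL into about 60 µL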
UCH37 DUB inh: human UCH37 deubiquitinating enzyme inhibition; inhibition, % (test concentration not listed); actives 0.33% (n = 330,000); Q9Y5K5; purified proteasome/UCH37, Ub-AMC cleavage fluorescence; AID 588478;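 active means mean of two replicates above 20%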;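 further: 0% = compound-free wells with enzyme and 100% = wells lacking proteasome; stock transfer was 100 nL into about 20 µL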
Target sequence (Q9Y5K5 whole entry, looked up): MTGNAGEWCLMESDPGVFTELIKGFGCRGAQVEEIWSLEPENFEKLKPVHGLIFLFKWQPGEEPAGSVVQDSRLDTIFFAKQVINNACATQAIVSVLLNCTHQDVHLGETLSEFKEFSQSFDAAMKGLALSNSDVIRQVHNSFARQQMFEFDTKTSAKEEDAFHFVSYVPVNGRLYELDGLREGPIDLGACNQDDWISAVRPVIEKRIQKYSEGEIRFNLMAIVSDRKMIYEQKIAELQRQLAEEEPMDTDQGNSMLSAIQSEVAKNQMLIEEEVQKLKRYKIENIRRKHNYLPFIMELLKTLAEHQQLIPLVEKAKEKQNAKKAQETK
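Assay system: Proteasome-bound UCH37. Buffer or medium: pH 7.4 Tris-HCl (50 mM) with ovalbumin, ATP-MgCl2, DTT. Incubation: 30 min preincubation with enzyme, 25 min cleavage at room temperature. Measured by: fluorescence, ex 355 nm, em 460 nm. Read-out basis: percent inhibition. Control set: wells without proteasome as full block, compound-free enzyme plus substrate as uninhibited.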
Numbers without * were called inactive.

compound,UCH37 DUB inh,Ecoli growth
CC(=NNC(=O)c1ccc(Br)o1)C(C)C,-1.4,0.65
Cc1cc(C=NNC(=O)c2cccs2)c(C)n1-c1ccccc1,1.6,0.66
NC(=O)C(=O)NN=Cc1c[nH]c2ccc(Br)cc12,6.3,0.7
CC(=NNc1ccc(Cl)cc1)c1ccccn1,4.0,0.62
CC(=NNC(=O)c1ccccc1)C(=NO)C(=O)Nc1ccccc1,2.3,0.7
CC1(CC(=O)NN=Cc2ccc(-c3ccc(Cl)cc3)o2)OCCO1,-6.0,0.71
CN(C)S(=O)(=O)c1cccc(-c2csc(NN=Cc3ccco3)n2)c1,3.4,0.65
O=C(ON=C1CCCc2occc21)c1ccc(Cl)cc1Cl,6.3,0.72
Cc1ccc2nc(C(Cl)(Cl)Cl)nc(NN=Cc3ccc([N+](=O)[O-])cc3)c2c1,0.0,0.72
Cc1nn(-c2ccccc2)c(C)c1C=Nn1c(-c2ccncc2)n[nH]c1=S,2.1,0.72
CC1=C(C#N)C(C=NOCc2ccc(F)cc2Cl)CC(=O)N1 (stereo not given),-21,0.66
CC(=NNC(=O)CN1CCN(Cc2ccccc2)CC1)c1cccs1,4.5,0.64
COc1cc(C=NNc2nc(Nc3ccccc3)nc(N3CCOCC3)n2)ccc1OC(=O)c1ccco1,0.3,0.74
O=C(CSc1nnc(SCc2ccc(Cl)cc2)s1)NN=Cc1c(Cl)cccc1Cl,1.5,0.73
CC(=NNC(=O)NC1CCCCC1)c1ccco1,1.3,0.68
Oc1ccc(C=NN(Cc2ccccc2)c2ccccc2)cc1,6.4,0.69
CCCCC(=O)NN=C(C)C1=C(C)C(C)(C)OC1=O,-0.7,0.7
CC1CN(c2ncc(C=NNC(=O)c3ccccc3O)s2)CC(C)O1 (stereo not given),-5.5,0.7
NC(=NO)c1ccccc1N1CCCCC1,-0.7,0.66
Cc1nn(-c2ccccc2)c(C)c1C=NNC(=O)c1cc(C(C)(C)C)[nH]n1,2.7,0.69
Cc1cc(C)nc(NN=Cc2ccc(Cl)cc2)n1,4.5,0.69
O=C(NN=Cc1ccc(F)cc1)c1cc(-c2ccco2)nc2ccccc12,-34,0.68
CC(=NNC(=O)CCC1C(=O)NN=C1C)c1ccc([N+](=O)[O-])cc1 (stereo not given),5.1,0.68
O=C(NN=Cc1cccc([N+](=O)[O-])c1)c1ccccc1-n1cccc1,0.4,0.69
O=C(NN=Cc1ccco1)c1ccccn1,7.2,0.68
CC(=Nn1c(C)nc2ccccc2c1=O)c1ccc(C)o1,2.0,0.68
O=S(=O)(c1ccccc1)C(C=NO)/C=C/c1ccccc1 (stereo not given),1.4,0.67
CC(=NNC(=O)Cc1cccn1C)c1cccs1,6.3,0.68
O=C(NN=Cc1cc(Br)cc(Br)c1O)c1ccncc1,-1.3,0.66
Cc1cccc(C=NNC(=O)Cn2nc(C)cc2C)n1,-1.7,0.62
Cc1ccsc1C=NNC(=O)c1ccc([N+](=O)[O-])cc1,1.7,0.7
O=C(NN=CC1CC=CCC1)c1ccccc1O (stereo not given),-1.3,0.65
Cc1nc2ccccn2c1C(=O)NN=Cc1cc(C)n(-c2ccc(Br)cc2)c1C,-6.8,0.68
Cc1ccc(C=NNC(=O)CCSc2ccccc2)cc1,4.1,0.7
CCOC(=O)NN=C(C)c1ccc(Br)cc1,1.9,0.68
COc1ccccc1/C=C/C=NNC(=O)c1cc(-c2ccc(C)o2)[nH]n1,3.2,0.64
CC(=NNC(=O)c1c[nH]c2ccccc12)c1ccc(C)s1,6.0,0.7
COc1ccc(CC(C)=NNC(=O)c2cn(C)c3ccccc23)cc1OC,1.6,0.65
CC1(C)SC(=S)N(N=Cc2ccccc2O)C1N(O)C(=O)Nc1ccccc1 (stereo not given),1.6,0.66
CC1CCCC(=NNC(=O)c2ccncc2)C1 (stereo not given),4.4,0.72
O=C(NN=C1CC(c2ccccc2)Oc2ccccc21)c1cccnc1 (stereo not given),-81,0.72
CCN(CC)C(=O)C(=O)NN=Cc1ccc(F)cc1,2.3,0.66
COc1cccc(C=c2sc(=C(C#N)C(=O)N3CCOCC3)n(-c3ccccc3)c2=O)c1,-21,0.67
O=C(NN=Cc1ccncc1)NC12CC3CC(CC(C3)C1)C2,1.5,0.62
CC(CC(C)C)=NNc1ccc(S(N)(=O)=O)cc1[N+](=O)[O-],8.8,0.69
COc1ccc(C=NNC(=O)c2ccccc2Br)cc1COc1c(F)c(F)cc(F)c1F,0.0,0.67
COc1cccc(C(C)=NNC(=O)c2cc(-c3cccnc3)nc3ccccc23)c1,-0.2,0.67
CCN(CC)c1ccc(C=NNC(=O)c2cccc3cc[nH]c23)cc1,-202,0.68
O=C(NN=Cc1ccc(Cl)c([N+](=O)[O-])c1)c1ccc2nc[nH]c2c1,4.5,0.69
CCn1c(C)nc2cc(C(=O)NN=Cc3cccc(O)c3O)ccc21,4.1,0.68
CCOc1cc(C=NNC(=O)c2cc(-c3cccc(OC)c3)nc3ccccc23)ccc1O,-1.0,0.71
Cc1cc(C(=O)NN=C2CC(C)CC(C)(C)C2)c(C)o1 (stereo not given),2.5,0.69
CCc1n[nH]c2c1C(=NO)CC(c1ccccc1)C2 (stereo not given),4.5,0.73
COc1cccc2c1OC(=NO)C(C(=O)Nc1ccc(C)cc1)C2 (stereo not given),2.4,0.66
CC(C)c1cc(C(=O)NN=Cc2c[nH]c3ccccc23)n[nH]1,12,0.62
COc1ccc(C=Nn2c(-c3n[nH]c4c3CCC4)n[nH]c2=S)c(OC)c1OC,4.3,0.62
CCCCCOCC1CC(CC(C)=NNC(N)=O)(C(=O)OCC)C(=O)O1 (stereo not given),1.7,0.69
CC(=NNC(=O)c1cccs1)c1ccc(C(=O)O)s1,14,0.72
Cc1cc2ncn(N=Cc3ccc([N+](=O)[O-])s3)c2cc1C,1.8,0.67
NC(=S)NN=Cc1ccccc1OC(=O)c1cc2ccccc2oc1=O,-67,0.71

Next results
compound,UCH37 DUB inh,Ecoli growth
CCCc1cc(C(=O)NN=Cc2ccc(CC)s2)c2ccccc2n1,-3.3,0.68
COc1ccc(C=NNC(=O)C(=O)/C=C2\NC3(CCCC3)Cc3ccccc32)cc1,7.8,0.73
Cc1cc(C=NNC(=O)C(O)(c2ccccc2)c2ccccc2)c(C)n1-c1ccccc1,-0.4,0.7
S=C(NN=Cc1ccc2c(c1)OCO2)NC1CC2CCC1C2 (stereo not given),2.2,0.73
COCCCn1c(=C(C#N)C(N)=O)sc(=Cc2ccc(OC(F)F)c(OC)c2)c1=O,-69,0.73
COc1ccc2ccccc2c1C=NNC(=O)c1cccc(C)c1,3.4,0.64
COc1ccc(C=NNC(=O)CNS(=O)(=O)c2ccccc2)cc1,1.2,0.62
O=C(CNC(=O)c1ccccc1F)NN=Cc1cn[nH]c1-c1ccccc1,2.1,0.7
CON=C1CCn2c1c(C)c1ccccc12,-33,0.64
COc1ccc(C=NNC(=O)c2nc(Cl)c(Cl)c(N)c2Cl)cc1COc1ccc(F)cc1F,-231,0.82
COc1ccc(/C(O)=C\C(=O)C(=O)Nc2c(C)n(C)n(-c3ccccc3)c2=O)cc1,16,0.71
Cc1nc(-c2cccnc2)sc1C(=O)NN=Cc1ccccc1Cl,-4.5,0.71
CC(=N/N=C1/NC(=O)CC(C(=O)Nc2ccccc2)S1)c1cccs1 (stereo not given),6.5,0.67
Cc1cccc(C(=O)NN=Cc2coc3ccccc3c2=O)c1,-30,0.65
CN(C)c1ccc(C=NN=Cc2ccccc2O)cc1,7.7,0.72

Entries of single compounds as entered above. Screens in order: UCH37 DUB inh, Ecoli growth
COc1ccc(C=NNC(=O)c2nc(Cl)c(Cl)c(N)c2Cl)cc1COc1ccc(F)cc1F across the screens: -231, 0.82
Cc1cccc(C(=O)NN=Cc2coc3ccccc3c2=O)c1 across the screens: -30, 0.65
Cc1nc(-c2cccnc2)sc1C(=O)NN=Cc1ccccc1Cl across the screens: -4.5, 0.71
COc1ccc(C=NNC(=O)CNS(=O)(=O)c2ccccc2)cc1 across the screens: 1.2, 0.62
Cc1cc(C=NNC(=O)C(O)(c2ccccc2)c2ccccc2)c(C)n1-c1ccccc1 across the screens: -0.4, 0.7

The results go on.
compound,UCH37 DUB inh,Ecoli growth
O=C(Cc1ccc(F)cc1)NN=Cc1ccc(-c2ccc(Cl)c(C(=O)O)c2)o1,-7.1,0.64
Cc1cc(C)n2nc(C(=O)NN=Cc3ccccc3Cl)nc2n1,4.2,0.72
Cc1cc(C(=O)NN=Cc2ccc(OC(=O)c3ccccc3Br)cc2)n[nH]1,-0.5,0.72
O=[N+]([O-])c1cc(Br)c(O)c(C=NNc2nc3ccccc3s2)c1,3.3,0.72
Cc1ccc(-n2ncc(C#N)c2N=CN2CCCCCC2)cc1,0.6,0.69
Cc1ccccc1C=NNc1ncnc2nc[nH]c12,8.9,0.68
Cc1[nH]nc2c1C(=NO)CCC2,0.1,0.68
COc1ccc(/C=C/C=NNC(=O)COc2ccc(OC)cc2)cc1,1.8,0.67
CCn1c(SCC(=O)NN=Cc2ccccc2OCC(=O)O)nnc1-c1ccc(Cl)cc1,3.7,0.68
CCOc1ccc2ccccc2c1C=NNC(=O)c1c(C)cc(C)[nH]c1=O,-5.5,0.71
Cc1cc(C)cc(OCC(=O)NN=Cc2ccccn2)c1,-1.4,0.65
CC(C)CN(CC(C)C)c1ccc(C=Nn2cnnc2)cc1[N+](=O)[O-],9.6,0.7
COc1ccc(C(C)=NNC(=O)CNC(=O)c2cccnc2)c(OC)c1,2.4,0.63
O=C(CCc1ccc(S(=O)(=O)N2CCOCC2)cc1)NN=Cc1cccc(O)c1,2.3,0.7
Cc1nn(-c2ccccc2)cc1C=NO,0.4,0.64

Exported with each value named: four of the compounds above
mol: Cc1cc(C(=O)NN=Cc2ccc(OC(=O)c3ccccc3Br)cc2)n[nH]1
  UCH37 DUB inh: -0.5
  Ecoli growth: 0.72

mol: O=[N+]([O-])c1cc(Br)c(O)c(C=NNc2nc3ccccc3s2)c1
  UCH37 DUB inh: 3.3
  Ecoli growth: 0.72

mol: Cc1ccc(-n2ncc(C#N)c2N=CN2CCCCCC2)cc1
  UCH37 DUB inh: 0.6
  Ecoli growth: 0.69

mol: Cc1ccccc1C=NNc1ncnc2nc[nH]c12
  UCH37 DUB inh: 8.9
  Ecoli growth: 0.68

New compounds follow
compound,UCH37 DUB inh,Ecoli growth
O=c1c(=Cc2ccc(O)cc2)sc2n1C(c1ccccc1)C(c1ccccc1)=NN=2 (stereo not given),-3.9,0.75
Cc1ccc(C=NN2C(=O)C3C(C2=O)C2C=CC3C23CC3)o1 (stereo not given),3.9,0.69
CCc1ccc(C(C)=NNC(=O)CNC(=O)/C=C/c2ccco2)cc1,-0.3,0.66
CC(=NNC(=O)C(=O)Nc1c(C)n(C)n(-c2ccccc2)c1=O)c1ccncc1,4.5,0.69
Cc1ccc(SCc2cc(=O)[nH]c(N=C(N)Nc3cccc4ccccc34)n2)cc1,2.0,0.67
O=C(NN=Cc1ccncc1)c1cccc(NC(=O)c2ccc(Cl)cc2)c1,3.7,0.64
COc1ccc(NC(=Nc2nc(C)cc(C)n2)NC(=O)c2ccccc2)cc1,1.0,0.74
OCCN(C=Nc1nc(-c2ccc(Br)cc2)cs1)CCO,2.6,0.63
CC1S/C(=N/N=Cc2cccs2)NC1=O (stereo not given),18,0.69
NC(=O)Cn1cc(C=NNS(=O)(=O)c2ccccc2)c2ccccc21,2.0,0.67
CC(=NNC(=S)NCCc1ccccc1)c1ccc(C#N)cc1,2.5,0.72
O=C(NN=Cc1ccccc1[N+](=O)[O-])c1ccc2nc[nH]c2c1,5.8,0.68
COc1cc(C=NO)ccc1OCc1ccc([N+](=O)[O-])cc1,5.2,0.7
CC(/C=C/c1ccco1)=NNC(=O)CNc1ccc2ccccc2c1,5.8,0.71
CC(/C=C/c1ccccc1)=NNC(=O)Cn1cncn1,6.9,0.67
COc1ccc(C=NNC(=O)c2cc(O)c(O)c(O)c2)cc1COc1ccc(C(=O)OCC(C)C)cc1,5.4,0.68
CC1(C)C(c2ccc(Cl)cc2)=[N+]([O-])C2(CCCCC2=NO)N1O (stereo not given),4.6,0.74
S=C(NCc1ccccc1)NN=Cc1cccs1,5.6,0.68
Oc1cccc(C=NN=Cc2cccc(O)c2O)c1O,4.0,0.62
O=C(NC(C(=O)NN=Cc1cccc2ccccc12)c1n[nH]c(=O)c2ccccc12)c1ccccc1 (stereo not given),4.5,0.66
O=C(ON=C1CCS(=O)(=O)c2sccc21)c1ccc(F)cc1,-0.8,0.65
C=CCc1cccc(C=Nc2nc3ccccc3n2CC)c1O,4.9,0.65
Cc1ccsc1C=NN1CCN(c2ccccc2)CC1,0.0,0.66
O=C(NN=Cc1cc(Br)c(Br)o1)c1cccnc1,14,0.66
COc1ccc(NC(=O)CC(C)=NNC(=O)c2cnccn2)cc1Cl,0.8,0.61
COc1cc2cc(C(=O)NN=Cc3cccc(OC)c3OC)[nH]c2cc1OC,-19,0.65
CCN(CC)c1ccc(C(=O)NN=Cc2ccc(N3CCOCC3)cc2)cc1,-213,0.7

These rows are one share of the data (hit frequency here may not be typical).
